A1 inh: inhibitors of the anti-apoptotic protein A1, read as caspase activation; MEF A1-2A-BIM cells, Caspase-Glo 3/7 luminescence, 3 h; percent of clofoctol response, vehicle zero; caspase activation, % (test concentration not listed); 0.066% of 330,000 active;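 active = over half of replicate activation scores above 10%, or exactly half above 10 with the replicate mean above 10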;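 also: wells of about 30 µL received 50 nL stock; many hits fall short of the cut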
E coli growth: inhibitors of Escherichia coli growth; OD600, 23 h; active compounds read low; OD600 absorbance (test concentration not listed); 0.21% of 330,000 active; AID 1053175;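 active = OD600 absorbance below the run mean of sample wells minus 3.6 SD, in any replicate, cut at about 0.56 in these data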;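 also: stock transfer was 300 nL into about 60 µL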
T cruzi inh: blocks replication of Trypanosoma cruzi; T. cruzi beta-gal in NIH3T3, luminescence, 90 h; inhibition, % (no concentration beside the values); 1.4% of 300,000 active;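 active = mean inhibition across valid replicates above about 55%, limit read from the data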;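 also: signal also drops with host cell toxicity which is not excluded here; 0% = plate median of DMSO wells and 100% = zero luminescence signal; higher percent means less beta-gal luminescence so fewer parasites; stock transfer was 50 nL into about 50 µL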
Ecoli rRNA inh: selective bacterial rRNA inhibition in E. coli; 1.6% of 350,000 active; E. coli WT GFP vs humanized-ribosome RFP mutants, fluorescence, 24 h; active compounds read low; DMSO median 0, no signal -100; GFP signal change (wild-type ribosome), % (no concentration beside the values); AID 720706;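 active = significant combined selectivity score with lowered wild-type GFP, culture density cut under 30%, mutant RFP and density less affected; inactive = any of these conditions unmet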; also: one replicate is shown; some compounds called inactive have numbers as strong as hits
FGF22 binding: shifts melting point of recombinant human FGF22; Q9HCT0; calls only at 9.99 µM; AID 651658; 1.5% of 340,000 active; recombinant FGF22 thermal shift, SYPRO orange fluorescence; percent of sucrose octasulfate shift, DMSO zero;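 active = melting point raised past a set limit in the mean and every replicate; three in four hits are not shown here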
Target sequence (Q9HCT0 whole entry, looked up): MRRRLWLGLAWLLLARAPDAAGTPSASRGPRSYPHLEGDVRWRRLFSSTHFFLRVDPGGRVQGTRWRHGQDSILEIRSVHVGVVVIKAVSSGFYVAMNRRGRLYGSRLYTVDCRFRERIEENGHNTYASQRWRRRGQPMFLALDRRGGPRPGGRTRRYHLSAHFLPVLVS
UCH37 inh: human UCH37 deubiquitinating enzyme inhibition | Q9Y5K5 | 0.33% of 330,000 active | inhibition, % (test concentration not listed) | purified proteasome/UCH37, Ub-AMC cleavage fluorescence;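 active = mean of two replicates above 20%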;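 also: 0% = compound-free wells with enzyme and 100% = wells lacking proteasome; stock transfer was 100 nL into about 20 µL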
Target sequence (Q9Y5K5 whole entry, looked up): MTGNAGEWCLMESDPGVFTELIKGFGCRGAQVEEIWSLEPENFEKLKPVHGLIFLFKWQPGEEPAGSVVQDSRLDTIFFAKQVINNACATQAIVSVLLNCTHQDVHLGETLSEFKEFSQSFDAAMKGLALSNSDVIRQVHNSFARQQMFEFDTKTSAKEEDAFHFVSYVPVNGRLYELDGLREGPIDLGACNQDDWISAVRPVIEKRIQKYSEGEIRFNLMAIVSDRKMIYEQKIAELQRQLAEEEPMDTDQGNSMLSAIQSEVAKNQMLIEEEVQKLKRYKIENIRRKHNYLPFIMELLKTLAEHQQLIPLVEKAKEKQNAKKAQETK
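Test system – human UCH37 enzyme supplied as purified proteasome complex · Incubation – 30 min preincubation with enzyme, 25 min cleavage at room temperature · Detection – AMC fluorescence from Ub-AMC cleavage, excitation 355 nm, emission 460 nm · Benchmarks – no-proteasome wells (full inhibition) and compound-free wells (no inhibition)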
Beta cell apopt: blocks beta cell apoptosis; INS-1E cytokine-induced death, ATP luminescence, 48 h; percent of positive-control rescue, neutral wells zero; protection from apoptosis, % (test concentration not listed); 0.8% of 300,000 active;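 active = all replicates at 75% or more, or half of them and the mean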;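 also: 0% = cytokine-treated negative control wells and 100% = positive control rescue; higher means more ATP so stronger rescue from cytokine killing; wells of about 40 µL received 100 nL stock; the first replicate is given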
MLL AF4-AF9 inh: inhibitors of human MLL-AF4/AF9 interaction; P42568; AlphaScreen, biotin-AF4 peptide binding to FLAG-AF9; inhibition, % at 10 µM; 0.47% of 350,000 active; AID 651704;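 active = every replicate reaching a set inhibition limit, whatever the replicate mean, cut at about 25% in these data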;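 also: 0% = plate neutral control median and 100% = total signal loss; the record names both 10 and 1 µM as test concentration; the first replicate is given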
Target sequence (P42568 whole entry, looked up): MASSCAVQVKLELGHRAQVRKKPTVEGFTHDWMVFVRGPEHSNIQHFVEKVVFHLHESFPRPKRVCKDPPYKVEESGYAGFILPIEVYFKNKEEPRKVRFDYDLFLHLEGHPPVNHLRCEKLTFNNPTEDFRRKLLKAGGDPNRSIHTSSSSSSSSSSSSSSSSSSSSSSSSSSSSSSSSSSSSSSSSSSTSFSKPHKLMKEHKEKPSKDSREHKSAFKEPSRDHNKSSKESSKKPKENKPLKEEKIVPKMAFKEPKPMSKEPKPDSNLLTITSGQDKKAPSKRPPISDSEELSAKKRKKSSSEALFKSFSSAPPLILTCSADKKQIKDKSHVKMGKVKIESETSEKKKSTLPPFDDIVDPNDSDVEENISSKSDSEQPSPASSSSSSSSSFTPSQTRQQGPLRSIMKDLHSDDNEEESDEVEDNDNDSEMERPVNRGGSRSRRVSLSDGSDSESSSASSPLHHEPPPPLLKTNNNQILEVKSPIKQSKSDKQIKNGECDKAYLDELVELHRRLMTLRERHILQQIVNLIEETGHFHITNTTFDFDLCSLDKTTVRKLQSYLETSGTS
Ecoli rRNA inh OD600: recorded beside Ecoli rRNA inh, whose call it bears; OD600 change, %; measured here: OD600 growth;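 optical density of the mix in the first replicate; 0 = DMSO median and -100 = no signal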
Ecoli rRNA inh RFP: second read-out of Ecoli rRNA inh, no call of its own (marks repeat the call); RFP signal change, %; measured here: RFP humanized mutant strains;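 first replicate; 0 = DMSO median and -100 = no signal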
* hit, by the source's call; i = inactive; x = not tested or not shown.

SMILES | A1 inh | E coli growth | T cruzi inh | Ecoli rRNA inh | Ecoli rRNA inh OD600 | Ecoli rRNA inh RFP | FGF22 binding | UCH37 inh | Beta cell apopt | MLL AF4-AF9 inh
CN1C(C(=O)Nc2ccccn2)=C(O)c2sc(Cl)cc2S1(=O)=O | 0.3 | x | -6 | x | x | x | i | 2.3 | 12 | -2.2
Cc1cc(C)c(NC(=O)c2ccc3nccnc3c2)c(C)c1 | x | 0.7 | x | 2 | -5 | -2.7 | x | 5.9 | x | -0.7
COc1cccc(NS(=O)(=O)c2ccc(-c3coc(C)n3)cc2)c1 | 0.0 | 0.68 | 11 | -28* | -11* | 9.5* | i | -1.3 | -3 | -1.9
COc1ccc(OCC(=O)OCC(=O)NCc2ccc(F)cc2)cc1 | -0.4 | 0.69 | 9 | x | x | x | x | 3.9 | 2 | x
CCOC(=O)C1(CCCc2ccccc2)CCN(C(=O)COC)CC1 | -1.1 | 0.71 | -11 | 4 | -3 | -0.7 | i | -1.0 | -1 | -21
Cc1nn(Cc2ccc(Cl)cc2)c(C)c1NC(=O)c1ccc([N+](=O)[O-])cc1 | 0.4 | 0.69 | 11 | 7 | 3 | -6.4 | i | -0.1 | 0 | 3.4
Cc1nc2ccccc2c(=O)n1/N=C/c1ccco1 | 0.7 | x | -16 | x | x | x | i | x | -1 | -0.6
COc1ccc(CNC(=O)Cn2nc(C)c3c(C)n(-c4ccc(C)cc4)nc3c2=O)cc1OC | 0.3 | 0.63 | -9 | 4 | 8 | -1.9 | i | -0.5 | -4 | -0.8
O=C(NCc1cccc(F)c1F)C1CCC(=O)N(C2CCCCCC2)C1 (centres undefined) | 0.2 | 0.71 | 2 | -6 | -7 | -4.2 | i | 3.9 | -10 | -11
CC(=O)N1CCN(c2ccc(NCc3ccc4c(c3)OCO4)cc2)CC1 | 0.7 | 0.69 | 12 | x | x | x | x | 3.8 | -5 | x
CCN1C(=O)N[C@@H](CCc2ccccc2)[C@H](C(C)=O)[C@H]1C | -1.5 | x | -8 | -9 | -32 | 8.2 | i | 2.6 | -6 | 1.5
Cc1ccc(S(=O)(=O)Cc2ccc(C(=O)NC3CCCC3)o2)cc1 | 0.2 | 0.7 | -7 | 1 | -3 | -2.0 | i | 2.1 | -3 | -2.0
C=CCC(=O)N1CCCC(CCC(=O)NCc2ccccc2F)C1 (centres undefined) | 1.3 | 0.61 | -5 | 17 | 13 | 2.0 | i | 1.3 | x | 0.0
COc1ccc(C2C(C#N)=C(N)OC3=C2C(=O)CC(C)(C)C3)cc1 (centres undefined) | 1.2 | 0.7 | -6 | 11 | 7 | 1.4 | i | 2.2 | -6 | -0.9
Cc1ccc(-n2cc(C(=O)c3ccc(F)cc3)nn2)cc1Cl | -4.9 | 0.74 | 0 | x | x | x | x | 1.2 | 2 | x
Cc1cc(C)cc(Nc2cnn(C34CC5CC(CC(CC(=O)O)(C5)C3)C4)c(=O)c2Cl)c1 | -0.3 | 0.69 | -2 | -5 | -8 | -5.3 | i | 12 | -1 | 3.7
Cn1nc(C(=O)N2CCCCC2)c2c1-c1ccccc1S(=O)(=O)C2 | 0.4 | 0.68 | -6 | -3 | -15 | -2.2 | i | 2.9 | -12 | 0.0
CN(CC(=O)Nc1ccccc1Cl)C(=O)COC(=O)C1CCN(c2ccc(C(F)(F)F)cn2)CC1 | -0.8 | 0.66 | -5 | -14 | -48 | -2.6 | x | -1.3 | -1 | -3.3
C[N+](C)(C)C(Cc1ccccc1)C(=O)[O-] (centres undefined) | -0.7 | 0.7 | -2 | x | x | x | i | 4.5 | x | 0.0
O=C1CCCc2[nH]nc(-c3cccnc3)c21 | 0.4 | 0.69 | 2 | x | x | x | x | 0.4 | -6 | x
COc1ccc(CN2CCN(C3CCC3)CC2CCO)c(F)c1 (centres undefined) | 1.4 | 0.68 | 2 | 2 | 10 | -3.6 | i | 0.1 | x | 3.0
C=CCNC(=O)c1oc2ccc(S(=O)(=O)N(CC)CC)cc2c1C | -0.7 | 0.65 | 0 | x | x | x | x | 4.8 | 2 | x
CCN(C(=O)c1cccc(S(=O)(=O)N2CCCCC2)c1)C1CCS(=O)(=O)C1 (centres undefined) | x | 0.67 | 1 | 4 | 0 | 1.6 | i | 0.9 | x | -0.7
CCOc1ccc(N(C)S(=O)(=O)c2ccc(-c3ccc(=O)[nH]n3)s2)cc1 | 1.0 | 0.7 | 23 | 10 | 8 | 2.8 | i | 4.5 | -1 | 0.0
CC(NS(=O)(=O)c1cccc(C(=O)N(C)Cc2ccc(N3CCOCC3)cc2)c1)c1ccccc1 (centres undefined) | x | 0.7 | x | -8 | -8 | 3.5 | i | 1.8 | x | 2.0

Single records, as listed above. Screens in order: A1 inh | E coli growth | T cruzi inh | Ecoli rRNA inh | Ecoli rRNA inh OD600 | Ecoli rRNA inh RFP | FGF22 binding | UCH37 inh | Beta cell apopt | MLL AF4-AF9 inh
`CCOC(=O)C1(CCCc2ccccc2)CCN(C(=O)COC)CC1` in the list: -1.1 | 0.71 | -11 | 4 | -3 | -0.7 | i | -1.0 | -1 | -21
`Cn1nc(C(=O)N2CCCCC2)c2c1-c1ccccc1S(=O)(=O)C2` in the list: 0.4 | 0.68 | -6 | -3 | -15 | -2.2 | i | 2.9 | -12 | 0.0
`Cc1ccc(-n2cc(C(=O)c3ccc(F)cc3)nn2)cc1Cl` in the list: -4.9 | 0.74 | 0 | x | x | x | x | 1.2 | 2 | x
`CC(=O)N1CCN(c2ccc(NCc3ccc4c(c3)OCO4)cc2)CC1` in the list: 0.7 | 0.69 | 12 | x | x | x | x | 3.8 | -5 | x
`CCN(C(=O)c1cccc(S(=O)(=O)N2CCCCC2)c1)C1CCS(=O)(=O)C1` (centres undefined) in the list: x | 0.67 | 1 | 4 | 0 | 1.6 | i | 0.9 | x | -0.7

(further entries)
SMILES | A1 inh | E coli growth | T cruzi inh | Ecoli rRNA inh | Ecoli rRNA inh OD600 | Ecoli rRNA inh RFP | FGF22 binding | UCH37 inh | Beta cell apopt | MLL AF4-AF9 inh
COc1ccc(S(=O)(=O)Nc2c(C(=O)O)[nH]c3ccccc23)cc1 | 0.0 | 0.7 | -6 | 3 | 3 | 0.9 | i | -2.9 | -1 | -0.6
Cc1ccc(NC(=O)CO/N=C(\N)c2nonc2N)cc1 | 0.3 | 0.62 | 1 | x | x | x | x | 1.8 | 0 | x
Cc1nc(SC(C)C(=O)Nc2c(C)n(C)n(-c3ccccc3)c2=O)nc(C)c1C (centres undefined) | 0.8 | 0.71 | x | 3 | 7 | -1.8 | i | -2.5 | 2 | -2.6
COc1ccc(CNC(=O)C2(CC3CC(c4ccccc4)=NO3)CCN(C(=O)Cc3ccc(F)cc3)CC2)cc1 (centres undefined) | 1.3 | x | -3 | -10 | -13 | 0.9 | i | 1.3 | 0 | 0.6
O=C(CSc1nc2ccccc2c(=O)n1-c1ccccc1Cl)Nc1cccc(S(=O)(=O)N2CCOCC2)c1 | -0.2 | 0.76 | 15 | 5 | 14 | 0.5 | i | -18 | x | -73
O=C(COC(=O)C1CCN(S(=O)(=O)c2cccc3cccnc23)CC1)c1ccc([N+](=O)[O-])cc1 | 0.5 | 0.78 | -7 | x | x | x | x | 2.1 | 3 | x
CCCCN(CCCC)C(=S)NC(=O)c1ccccc1Cl | -0.3 | x | 6 | x | x | x | x | 2.2 | 1 | x
CN(C)c1nc2ncn(Cc3ccccc3)c2c(=O)[nH]1 | -0.7 | 0.68 | -10 | -1 | 14 | -0.9 | i | 3.7 | 6 | 0.2
COc1cccc(CC(=O)Nc2ccc(S(=O)(=O)Nc3nc(C)cc(C)n3)cc2)c1 | 0.2 | 0.72 | -1 | 0 | 4 | -2.7 | i | 3.7 | -2 | 0.9
COc1cc(CC(=O)Nc2cccc(SC)c2)cc(OC)c1OC | 0.9 | 0.69 | -20 | -7 | -14 | 1.9 | i | 1.3 | 21 | 0.0
CC(=O)c1ccc(S(=O)(=O)N2CCN(c3nc4c(C)c(C)ccc4cc3C#N)CC2)cc1 | 0.0 | 0.74 | 64* | x | x | x | x | -40 | 62 | x
CC(C)N1CCc2c(sc(NC(=O)c3ccc(S(=O)(=O)N4CCCCC4C)cc3)c2C(N)=O)C1 (centres undefined) | 1.2 | 0.68 | 23 | -8 | -3 | 2.8 | i | 2.9 | x | 2.3
COc1ccc(CCNC(=O)c2ccc3c(c2)N(Cc2ccc(C)cc2)CCS3)cc1OC | 0.1 | 0.77 | 31 | x | x | x | x | -173 | 3 | x
Cc1ccc(NC(=O)COC(=O)C2CCC(=O)N2)c([N+](=O)[O-])c1 (centres undefined) | 1.1 | 0.67 | -14 | 11 | 5 | -0.8 | i | 1.4 | -2 | -1.2
COc1ccc(S(=O)(=O)NC2CCCC2)c(OC)c1 | -0.3 | 0.65 | -9 | 12 | 7 | 0.5 | i | 0.1 | -1 | -6.6
Cc1ccc(C(=O)Nc2ncc(Cc3ccccc3)s2)o1 | -8.0 | 0.72 | 4 | x | x | x | x | 2.6 | x | x
O=C(CN1C(=O)NC2(CCCCC2)C1=O)Nc1cccc(S(=O)(=O)N2CCOCC2)c1 | 0.0 | 0.66 | -5 | 5 | 15 | 3.8 | i | 0.1 | 1 | -1.5
Cc1ccc(C(C)C)c(OCC(=O)Nn2c(C)nc3ccccc3c2=O)c1 | 1.1 | 0.78 | 0 | x | x | x | x | 5.5 | -2 | x
COc1cc(NC(=O)CCc2nnc3ccc(NCc4ccco4)nn23)cc(OC)c1 | -0.4 | 0.67 | 16 | -1 | -4 | -1.7 | i | 2.0 | -3 | 0.0
CCSc1oc(-c2ccco2)nc1S(=O)(=O)c1ccc(C)cc1 | 1.0 | 0.63 | 18 | -22 | -38 | -0.6 | i | -1.3 | -5 | -4.2
S=c1[nH]c(-c2ccccc2)cn1/N=C/c1cccnc1 | 0.8 | x | -2 | 12 | 17 | 1.2 | i | x | 7 | -14
CSc1nncn1/N=C/c1ccc([N+](=O)[O-])cc1 | -0.5 | x | -5 | 9 | 4 | 0.7 | i | x | 7 | 0.3
CC(C)CC(NC(=O)C(CC(C)C)NC(=O)C(Cc1ccc(OCc2ccccc2)cc1)NC(=O)OC(C)(C)C)C(N)=O (centres undefined) | 0.7 | 0.68 | -6 | 18 | 18 | -2.1 | i | 2.2 | -14 | -1.0
Cc1ccc(N=Nc2c(N)[nH]n3c(=O)cc(-c4ccccc4)nc23)cc1 | 0.9 | 0.75 | x | x | x | x | x | 9.2 | 6 | x
O=C(Nc1ccc(Oc2cccnc2)cc1)c1ccccc1F | -3.1 | 0.6 | -15 | x | x | x | x | -0.3 | -1 | x
CC(C)(C)OC(=O)N[C@@H](C(=O)OC(C)(C)C)c1ccccc1 | 1.3 | x | x | 9 | 14 | 7.4 | i | 3.0 | -9 | 1.8
Cc1ccc(/C=N/n2c(-c3ccc(Cl)cc3)n[nH]c2=S)o1 | -0.1 | x | -20 | 7 | 10 | 1.5 | i | x | -2 | x
Cc1nc2nc[nH]n2c(=O)c1C/C=C/c1ccccc1 | -0.5 | 0.64 | -23 | -22* | 1.4* | -5.8* | i | 2.3 | x | -2.5
COC(=O)C1=C(C)Nc2c(c(=O)n(C)c(=O)n2C)C1c1ccc(Cl)cc1 (centres undefined) | -1.9 | 0.67 | 7 | x | x | x | x | -4.8 | 6 | x

Screening data from PubChem BioAssay.

Only part of the results is shown; the hit share may differ from the screen's.
